Assay outcomes from PubChem BioAssay.
rRNA inh HTS – selective bacterial rRNA inhibition in E. coli; E. coli WT GFP vs humanized-ribosome RFP mutants, fluorescence, 24 h; stronger effect = lower value; DMSO median 0, no signal -100; GFP signal change (wild-type ribosome), % (no concentration beside the values); 350,000 tested, 1.6% active;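 active = significant combined selectivity score with lowered wild-type GFP, culture density cut under 30%, mutant RFP and density less affected; inactive = any of these conditions unmet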; note: one replicate is shown; some compounds called inactive have numbers as strong as hits
Beta2AR agonist – activates human beta-2 adrenergic receptor causing internalization; 340,000 tested, 0.43% active; Am2.2-beta2AR cells, FAP receptor internalization, flow cytometry; reference of the scale not given here; response, % (test concentration not listed);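 active = response above a set limit, near 3 SD of response in nonfluorescent compounds, cut at about 42% in these data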;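 note: stock transfer was 100 nL into about 11 µL; a reference agonist was the positive control; negative values mostly stem from fluorescent compounds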
Target sequence (P07550 whole entry, looked up): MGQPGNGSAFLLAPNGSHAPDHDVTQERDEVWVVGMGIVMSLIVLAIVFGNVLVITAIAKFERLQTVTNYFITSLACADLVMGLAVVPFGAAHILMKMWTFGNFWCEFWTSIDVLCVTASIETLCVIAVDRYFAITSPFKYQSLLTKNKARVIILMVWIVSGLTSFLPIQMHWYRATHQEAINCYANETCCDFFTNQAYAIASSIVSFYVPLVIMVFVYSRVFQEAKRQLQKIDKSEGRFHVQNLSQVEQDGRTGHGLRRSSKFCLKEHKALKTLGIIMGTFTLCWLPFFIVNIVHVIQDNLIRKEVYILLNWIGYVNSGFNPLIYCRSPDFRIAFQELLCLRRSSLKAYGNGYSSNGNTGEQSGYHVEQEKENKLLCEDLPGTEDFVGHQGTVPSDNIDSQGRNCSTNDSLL
LANA-H2B inh – blocks KSHV LANA binding to histone H2A/H2B. Q9QR71. cell-free LANA-H2A/H2B peptide, fluorescence polarization. inhibition, % (concentration not given with the values). 320,000 tested, 0.6% active. AID 2629; in the data active = inhibition mostly above about 10%, no sharp cut-off; inactive = mostly below about 6.7%;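 note: stock transfer was 7.5 nL into about 10 µL; 0% = median of vehicle wells and 100% = median of positive control wells; one replicate is shown; the record names a cut of 25% in any replicate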
ALR inh – inhibitors of human sulfhydryl oxidase ALR; P55789; purified ALR, DTT oxidation, H2O2 HRP-luminol luminescence; inhibition, % (no concentration beside the values); 290,000 tested, 3.8% active; AID 485317;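 active = mean and each replicate at 75% or more; inconclusive = only one of the two met; inactive = neither met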;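 note: stock transfer was 7.5 nL into about 7.5 µL; 0% = neutral wells and 100% = wells with inactivated enzyme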
Target sequence (P55789 whole entry, looked up): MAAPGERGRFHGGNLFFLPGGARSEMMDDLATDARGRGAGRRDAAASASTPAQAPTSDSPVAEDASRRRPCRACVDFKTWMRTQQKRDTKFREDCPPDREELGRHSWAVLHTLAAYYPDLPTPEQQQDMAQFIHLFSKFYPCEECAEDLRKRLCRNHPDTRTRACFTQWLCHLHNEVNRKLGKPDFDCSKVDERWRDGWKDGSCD
Beta apoptosis – beta cell apoptosis inhibition; protection from apoptosis, % (test concentration not listed); INS-1E cytokine-induced death, ATP luminescence, 48 h; percent of positive-control rescue, neutral wells zero; AID 435005; 300,000 tested, 0.8% active;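 active = all replicates at 75% or more, or half of them and the mean; inconclusive = half reach 75% but not the mean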;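 note: 0% = cytokine-treated negative control wells and 100% = positive control rescue; higher means more ATP so stronger rescue from cytokine killing; wells of about 40 µL received 100 nL stock; the first replicate is given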
Calb FLC – affects C. albicans growth with fluconazole; C. albicans CaCi-2 (fluconazole-resistant clinical isolate) + fluconazole, Alamar Blue growth, 48 h; growth inhibition, % (test concentration not listed); 300,000 tested, 0.57% active;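 active = most replicates above 75%; inconclusive = exactly half above 75%; inactive = most below 75%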;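 note: all wells also contain fluconazole at 8 µg/ml as a sub-toxic cotreatment; 0% = median of DMSO wells and 100% = median of geldanamycin control wells; wells of about 8 µL received 7.5 nL stock; the first replicate is given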
T cruzi inh – blocks replication of Trypanosoma cruzi; inhibition, % (no concentration beside the values); T. cruzi beta-gal in NIH3T3, luminescence, 90 h; 300,000 tested, 1.4% active;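 active = mean inhibition across valid replicates above about 55%, limit read from the data; inconclusive = mean below that limit but half or more replicates reach it; inactive = mean below it, under half of replicates reach it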;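 note: signal also drops with host cell toxicity which is not excluded here; 0% = plate median of DMSO wells and 100% = zero luminescence signal; higher percent means less beta-gal luminescence so fewer parasites; stock transfer was 50 nL into about 50 µL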
A1 inh – inhibitors of the anti-apoptotic protein A1, read as caspase activation; MEF A1-2A-BIM cells, Caspase-Glo 3/7 luminescence, 3 h; percent of clofoctol response, vehicle zero; caspase activation, % (no concentration beside the values); 330,000 tested, 0.066% active;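 active = over half of replicate activation scores above 10%, or exactly half above 10 with the replicate mean above 10; inconclusive = replicate mean below 10 yet half the replicates above 10; inactive = over half of replicates below 10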;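 note: wells of about 30 µL received 50 nL stock; many hits fall short of the cut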
rRNA inh HTS OD600 – second read-out of rRNA inh HTS, no call of its own (marks repeat the call); OD600 change, %; measured here: OD600 growth;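 optical density of the mix in the first replicate; 0 = DMSO median and -100 = no signal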
rRNA inh HTS RFP – recorded beside rRNA inh HTS, whose call it bears; RFP signal change, %; measured here: RFP humanized mutant strains;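 first replicate; 0 = DMSO median and -100 = no signal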
Starred values were filed as active, the others as inactive; ? = inconclusive; / = no result given. These rows are one share of the data; count on the stated rates, not on these rows.

SMILES	rRNA inh HTS	rRNA inh HTS OD600	rRNA inh HTS RFP	Beta2AR agonist	LANA-H2B inh	ALR inh	Beta apoptosis	Calb FLC	T cruzi inh	A1 inh
[O-][n+]1c2cc(C(F)(F)F)ccc2c2n1CCN=C2c1ccc(Cl)cc1	-31	-51	14	-7	-2.7	15	-7	38	-22	-0.3
COc1ccc(C)cc1NC(=O)NCc1ccc(F)cc1	7	11	1.8	9	2.8	-2	-4	-23	-24	0.5
COc1cc(CCC(=O)NCc2ccc(S(N)(=O)=O)cc2)cc(OC)c1OC	17	11	1.6	21	2.0	/	-9	-3	-3	-1.3
O=C(Nc1ccccc1F)NC1CCN(Cc2nnnn2Cc2ccc(F)cc2)CC1	/	/	/	-6	3.2	-4	-4	3	7	-0.2
COc1ccc(OC)c(S(=O)(=O)N(C)CC(=O)Nc2ccc3c(c2)OCCO3)c1	/	/	/	-11	-0.7	-2	5	-3	4	-0.3
O=C(NCCc1ccccc1)C1CCN(C(=O)c2sccc2-n2cccc2)CC1	-1	-7	-5.9	-2	-4.1	-32	-1	19	21	-0.6
Nc1nc(C23CC4CCC(CC(C4)C2)C3)cs1	/	/	/	-5	/	/	-6	-30	2	-0.6
NC(=O)C1CCN(C(=O)C2CCC(=O)N(C3CCCCCC3)C2)CC1 (configuration not stated)	17	9	2.4	0	0.9	0	-5	4	-4	-1.1
C/C(=N\NC(=O)c1sccc1C)c1ccncc1	4	3	-1.4	-4	3.7	-2	0	24	-6	-4.2
COc1ccccc1CCC(=O)OCC(=O)N1CCN(S(=O)(=O)c2ccc(C)cc2C)CC1	-2	-15	3.2	-6	-8.6	-65	0	5	-17	-0.4
CCOc1ccccc1NC(=O)c1nc(S(=O)(=O)Cc2ccccc2)ncc1Cl	5	6	-1.5	23	/	96*	/	-4	9	/
Cc1nn(Cc2c(Cl)cccc2Cl)c(C)c1NC(=O)c1cc(C(C)C)on1	12	14	0.3	6	1.2	-14	8	-3	2	-1.1
COCCNc1nnc(SCC(=O)NC(=O)c2ccccc2)s1	7	0	-0.7	-2	/	/	-4	-3	-7	0.1
CCOC(=O)c1cc2[nH]c3ccccc3c2[n+](-c2ccc([N+](=O)[O-])cc2)c1C	/	/	/	-6	-5.2	-27	6	-2	50	0.2
Cc1ccsc1/C=N\NC(=O)c1ccc2c(c1)OCO2	/	/	/	0	-8.1	-7	4	-14	-2	-7.4
COC(=O)c1cccc(NC(=O)c2cccc(OC)c2)c1	/	/	/	0	-3.4	-5	2	/	/	-11
O=C1C=C(c2ccc(O)cc2)C[C@@H](c2ccc3c(c2)OCO3)C1	-15	-13	-5.0	-1	4.7	-3	-1	/	/	-1.7
Cc1noc(C)c1C(=O)N1CCN(CCc2ccccc2)CC1	/	/	/	3	5.2	-2	5	-18	8	-1.3
Cc1cccc(CN2CCC(C(=O)Nc3ccc(-n4nc(C)cc4C)cc3)CC2)n1	7	3	1.9	-13	0.2	-15	-3	-4	1	1.8
Cc1nc2c3c(sc2c(=O)[nH]1)NC(=O)CC3c1ccccc1Cl (configuration not stated)	2	4	-6.6	4	2.9	/	4	3	-7	0.8
N#CCSc1nccc(/C=C/c2ccccc2)n1	-23	-45	-3.5	6	5.2	-24	-2	?	6	-0.1
CC(C)(C)C(=O)Nc1sc2c(c1C#N)CCN(Cc1ccccc1)C2	0	5	7.5	4	-4.2	/	6	2	-1	0.4
N#Cc1c(N)sc(=S)c2c1CCCCC2	/	/	/	10	7.4	-27	-4	5	-9	0.5
CCOc1cc(C(=O)Nc2ccccc2N2CCOCC2)ccc1OCC(=O)N1CCCCC1	2	2	0.0	6	3.9	/	-2	-3	14	0.5
COc1ccc(S(=O)(=O)N2CCN=C2SCc2cccnc2)cc1	-5	-3	0.0	-13	1.2	99*	-1	?	2	0.5

Later entries.
SMILES	rRNA inh HTS	rRNA inh HTS OD600	rRNA inh HTS RFP	Beta2AR agonist	LANA-H2B inh	ALR inh	Beta apoptosis	Calb FLC	T cruzi inh	A1 inh
CCC(C)(C(=O)NC1CCCC1)N(Cc1cccs1)C(=O)c1ccc2c(c1)OCO2 (configuration not stated)	/	/	/	-5	-1.2	1	-1	13	-1	0.2
COc1ccc(CCNC(=O)COc2ccc(S(=O)(=O)N3CCCC3)cc2)cc1	9	8	0.6	-5	2.5	-2	-5	3	-14	0.4
CC(=O)NCCOc1nc(N(C)C)nc(N2CCCCC2)n1	8	-3	-1.2	3	-1.9	-16	3	-13	-10	-0.6
O=C(CSc1nccn1-c1cccc(Cl)c1)Nc1ccc2c(c1)OCCO2	-13	-19	-3.2	4	-0.4	99*	-14	-14	2	0.7
CN(C)C(=O)Cn1cnc2c(cnn2-c2ccccc2Cl)c1=O	13	11	-5.0	-7	2.7	/	-2	8	-3	0.0
CCN(CC)S(=O)(=O)c1ccc(S(=O)(=O)N(CC(=O)Nc2ccccc2)CC2CCCO2)cc1 (configuration not stated)	/	/	/	0	1.6	98*	1	-22	10	0.5
O=C1CC(c2ccccc2)CC(O)=C1C=NCCN1CCN(C(=O)Nc2ccccc2)CC1 (configuration not stated)	/	/	/	-1	0.9	-5	-9	8	5	-0.6
COC(=O)Nc1ncc(CN2CCC(c3ccccc3)CC2)s1	/	/	/	-9	4.2	/	-2	23	17	1.8
O=C(NC1CCCCC1)c1nc2c(nnn2Cc2ccccc2Cl)c(=O)[nH]1	/	/	/	2	-1.4	6	-1	?	8	-1.7
Cc1oc(-c2ccc(Cl)cc2)nc1CN1CCC(C(=O)NCCCN2CCCC(C)C2)CC1 (configuration not stated)	5	8	1.3	28	2.3	2	3	31	49	-1.2
CN(C)S(=O)(=O)c1cccc(NC(=O)COC(=O)c2cc(-c3cccc(Br)c3)nc3ccccc23)c1	/	/	/	2	1.6	-17	4	13	-1	0.3
O=C(CSc1nc2c(cnn2-c2ccc(F)cc2)c(=O)[nH]1)N1CCOCC1	/	/	/	3	0.6	-1	4	/	/	-0.1
Cc1cnc(C(=O)NNC(=O)c2ccc(Br)cc2)cn1	-12	-1	-2.6	-1	-2.3	-2	13	/	12	-0.1
O=C(NCC1CCCCC1)c1ccc(Cl)c(S(=O)(=O)N2CCOCC2)c1	-4	-6	1.0	-6	2.1	/	8	/	/	-1.3
CSc1nc(C)cc(Oc2ccc(=O)[nH]n2)n1	7	5	-3.8	-5	-0.1	-3	/	-8	1	0.5
O=C(NCc1nc(-c2ccccc2)cs1)c1ccccc1	-29	-31	-12	-3	8.2	0	-3	-1	4	-1.1
COc1ccc(NCc2nnc(SCC(=O)NNC(=O)c3ccc(C)cc3)n2C)cc1	10	8	-0.2	1	-7.7	20	2	-2	-11	-2.0
O=C(Cc1cccc2ccccc12)NN1C(=O)CSC1=S	2	-2	25	1	4.4	50	/	17	-5	-0.8
N#Cc1ccc(C(=O)Nc2nc3ccccc3[nH]2)cc1	4	13	0.2	0	0.8	-2	8	-9	-21	-7.8
CN(C)S(=O)(=O)n1cc(/C=C(\NC(=O)c2ccccc2Cl)C(=O)NCCCN2CCOCC2)c2ccccc21	-1	4	-2.5	-6	2.4	-2	10	-25	16	1.7
O=C1C(=O)N(c2cccc(Cl)c2)C(c2ccccc2[N+](=O)[O-])/C1=C(\O)c1ccccc1 (configuration not stated)	-30	-41	-18	6	0.8	5	-5	-1	-22	0.2
O=C1C[C@@H](c2ccc(O)cc2)Oc2cc(O)cc(O)c21	-24	-27	-4.4	2	2.5	100*	1	-2	-29	0.8
CC(=O)c1ccc(S(=O)(=O)NCc2ccc(C(=O)NCC(c3ccccc3)N(C)C)cc2)cc1 (configuration not stated)	-2	0	-2.6	-4	2.9	-15	-3	-3	6	0.2
CN(CC(=O)Nc1ccc(Cl)cc1)C(=O)c1cccc(S(=O)(=O)N2CCN(Cc3ccccc3)CC2)c1	-42	-69	-2.8	9	0.7	-4	40	/	19	-0.7
CCCNS(=O)(=O)c1ccc(OCC(=O)N2CCOCC2)cc1	10	-3	1.5	4	-2.2	-5	0	-20	-19	-0.1

New compounds follow.
SMILES	rRNA inh HTS	rRNA inh HTS OD600	rRNA inh HTS RFP	Beta2AR agonist	LANA-H2B inh	ALR inh	Beta apoptosis	Calb FLC	T cruzi inh	A1 inh
COc1ccc(NC(=O)CNC(=O)Cc2ccccc2)cc1OC	5	13	-2.6	0	7.0	/	-2	13	1	-0.1
CCOc1ccc(S(=O)(=O)NCCC(=O)OCC(=O)Nc2cc(C)on2)cc1	-1	0	-3.7	-4	-2.4	-22	-7	-2	1	0.0
CC1CCN(S(=O)(=O)c2ccc(S(=O)(=O)NCc3cccnc3)cc2)CC1	27	17	0.5	-4	-7.1	/	-4	0	-13	-4.4
COc1ccc(-c2cc(C(=O)NCc3ccco3)c3ccccc3n2)cc1	-4	-11	-0.3	-2	7.4	4	2	15	-14	-0.1
COc1cc(NC(=O)COC(=O)c2ccccc2F)cc(OC)c1	4	4	-0.6	-3	0.4	-19	-2	-1	-14	0.3
Cc1ccc2c(c1)N(CC(=O)Nc1ncccc1C)C(=O)C(C(C)C)O2 (configuration not stated)	-4	-2	-6.0	0	-0.5	9	6	5	-4	0.3
CCN(CC)CCN(C(=O)c1ccc(C(C)=O)cc1)c1nc2ccc(Cl)cc2s1	1	-4	5.8	6	2.2	-8	-3	-12	41	1.1
Cc1cccc(OCCc2c(C)[nH]c(=S)[nH]c2=O)c1	17	13	2.7	3	-1.3	57	-1	4	10	0.9
Cc1ccc(OCC(=O)N2CCN(C(=O)Cc3ccccc3)CC2)cc1	1	4	-2.9	1	-2.2	-9	-7	1	4	1.9
Cc1ncc(C[n+]2csc(CCOC(=O)CC3C4CC5CC(C4)CC3C5)c2C)c(N)n1 (configuration not stated)	/	/	/	-18	2.1	/	-2	15	9	0.2
CCN(CC(=O)Nc1cccc(OC)c1)C(=O)c1ccncc1	3	-3	-0.6	-2	0.4	-36	3	-3	-13	0.1
Cc1cccc(C2c3[nH]c4ccccc4c3CCN2Cc2ccc(C)s2)n1 (configuration not stated)	2	-13	0.3	0	0.1	-2	/	-6	-3	0.5
CN(CC(=O)Nc1sc2c(c1C#N)CCCCC2)Cc1nc2ccccc2c(=O)[nH]1	-5	-12	1.8	-7	0.9	/	-2	1	-1	0.0
Cc1ccccc1-n1c(SCC(=O)c2c(N)n(C)c(=O)n(C)c2=O)nc2sc3c(c2c1=O)CCCC3	/	/	/	21	0.6	-21	/	5	47	0.1
Cc1cc(C)nc(SC2CC(=O)N(c3ccc(Br)cc3)C2=O)n1 (configuration not stated)	2	3	2.7	-8	1.0	7	-2	-6	2	0.0
O=C(CN1C(=O)/C(=C\c2ccc(F)cc2)Oc2ccccc21)NCc1ccco1	/	/	/	-1	/	/	-1	-4	-25	-0.2
CC(=O)Nc1ccc(NC(=O)C(C)OC(=O)C2CCCC2)cc1 (configuration not stated)	-1	-2	-1.7	10	1.0	-2	2	-6	-7	0.9
Cc1ccc(/C=C2\SC(=S)N(CCC(=O)NNC(=O)c3ccc(O)cc3)C2=O)cc1	-2	7	0.0	4	-3.6	1	-8	/	-4	-0.6
